Measles inh: inhibitors of measles virus growth in infected cells | infected Vero cells, GFP fluorescence, 64 h; active compounds read low | z-score (concentration not given with the values) | hit rate 0.1% among 33,000;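 active = z-score under -3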;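 also: score is relative to mean and SD of the compound wells of a plate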
* marks the source's active call; other numbers are inactive results. The list is partial; count on the stated rates, not on these rows.

Start of the listing, in advance (four entries):
Measles inh	structure
-0.42	COc1ccc2nc3sc(C(=O)NCC4CCN(Cc5cccc(C)c5)CC4)cc3cc2c1
-0.12	S=C1NC(c2ccccc2)=CC(c2ccc(Cl)cc2)N1 (configuration not stated)
-1.08	O=C(CSc1nc2c([nH]c3ccccc32)c(=O)n1-c1cccc(Cl)c1)Nc1nccs1
-0.63	Cc1ccc(NS(=O)(=O)c2ccc3c(c2)C2C=CCC2C(c2ccccc2Cl)N3)cc1C (configuration not stated)

The list itself, repeating the preview:
Measles inh	structure
-0.42	COc1ccc2nc3sc(C(=O)NCC4CCN(Cc5cccc(C)c5)CC4)cc3cc2c1
-0.12	S=C1NC(c2ccccc2)=CC(c2ccc(Cl)cc2)N1 (configuration not stated)
-1.08	O=C(CSc1nc2c([nH]c3ccccc32)c(=O)n1-c1cccc(Cl)c1)Nc1nccs1
-0.63	Cc1ccc(NS(=O)(=O)c2ccc3c(c2)C2C=CCC2C(c2ccccc2Cl)N3)cc1C (configuration not stated)
1.92	O=C(CSc1nnc(-c2ccc(Cl)cc2)o1)N1CCc2ccccc21
1.32	Cc1ccc(S(=O)(=O)N(CC(=O)NCc2ccco2)Cc2ccccc2)cc1
0.08	CCOc1ccccc1Nc1nc(-c2cc3cc(OC)ccc3oc2=O)cs1
-0.43	CCCCOc1ccc(C2C(=O)N(C3CCCCC3)CC(=O)N2Cc2ccc(F)cc2)cc1 (configuration not stated)
-1.33	CCOC(=O)c1cnc2c(C(F)(F)F)cccc2c1Nc1cccc(C(C)=O)c1
-0.87	CC1CCN(C2CC(=O)N(c3ccc(C(=O)O)cc3)C2=O)CC1 (configuration not stated)
-0.48	Cc1cccc2oc(-c3ccc(N=Cc4cccc(I)c4)cc3)nc12
-0.15	Cc1ccc(-c2nnc(SCc3ccc(F)cc3)o2)cc1
0.35	Cc1ccc(-n2cc(-c3ccc(Br)cc3)[nH]c2=O)cc1Cl
2.79	Cc1ccc(N2C(=O)c3cccc4c(N(C)C)ccc(c34)C2=O)cc1
1.24	CCCCNC(=O)C1CC(=O)N(CCc2ccc(C)cc2)C1 (configuration not stated)
1.41	CCOc1cc(C2C3=C(CCCC3=O)N(C)C3=C2C(=O)CCC3)cc(Cl)c1O
0.14	CCn1c(SCC(C)=O)nc2c1c(=O)[nH]c(=O)n2C
-0.61	CCOc1ccc(-n2nc(C(=O)Nc3ccc(C(C)C)cc3)c3ccccc3c2=O)cc1
1.37	c1cc(CSc2nc3ccccc3o2)nc(CSc2nc3ccccc3o2)c1
-0.18	NS(=O)(=O)c1ccc(Nc2nc(-c3ccccc3)cs2)cc1
0.48	CCN(CC)C(=O)c1c(NC(=O)c2ccccc2F)sc2c1CCC(C)C2 (configuration not stated)
-0.57	CCC1=Nc2cc(C(=O)NCCCOC(C)C)ccc2Sc2ccc(C)cc21
-1.34	Cc1[nH]c(=O)[nH]c(=O)c1CSCC(=O)OCC(=O)Nc1ccccn1
-0.57	CCCCCC(=O)Oc1cccc(N2C(=O)C3C4CCC(C4)C3C2=O)c1 (configuration not stated)
1.21	O=c1c2ccccc2ncn1-c1ccc2nsnc2c1
0.3	O=C(O)Cn1c2ccccc2c2nn3c(nc4ccccc43)nc21
-0.08	COc1ccc(C2C(C(=O)OCCOc3ccccc3)=C(C)NC3=C2C(=O)CC(c2ccc(Cl)cc2)C3)cc1 (configuration not stated)
-0.51	c1ccc(N2CCN(C3CCN(Cc4ccco4)CC3)CC2)cc1
-0.55	COc1cc2c(cc1OC)CN(C(=O)C1Cc3ccccc3CN1S(=O)(=O)c1ccc(F)cc1)CC2 (configuration not stated)
1.36	Cc1cc(C(=O)N2N=C(C3CC3)CC2(O)C(F)F)cs1 (configuration not stated)
2.14	COc1cccc(N2C(=O)Nc3ccc(Br)cc3C2(O)C(=O)NC2CCCCCCC2)c1 (configuration not stated)
-0.57	O=C(C1CC(=O)N(c2ccccc2)C1)N(Cc1ccccc1)Cc1ccccc1 (configuration not stated)
-0.1	CC(C)c1ccc(C(=O)CC2(O)C(=O)N(Cc3ccccc3)c3ccccc32)cc1 (configuration not stated)
0.73	CC(C)NC(=O)c1ccc2c(=O)n(CCCN3CCCC3=O)c(=S)[nH]c2c1
0.84	C=C(C)Cn1c(SCCC)nc2c(c1=O)C1(CCCC1)Cc1ccccc1-2
0.9	NC(=O)CSc1nc2c(c(=O)n1-c1ccc([N+](=O)[O-])cc1)SCC2
0.55	COc1ccc(CNc2nc(SCc3cc(=O)n4cc(Cl)ccc4n3)nc3ccccc23)cc1
1	COc1ccc(NC(=O)CCn2c(=S)[nH]c3ccccc3c2=O)cc1OC
0.99	O=C(NCc1ccc2c(c1)OCO2)c1cc(-c2ccccn2)nc2ccc(S(=O)(=O)N3CCOCC3)cc12
0.69	CCC1C(=O)C(C)(C)C(=O)OC1c1ccc(OC)c(OC)c1 (configuration not stated)
0	Cc1nc(N=C(NC(=O)c2ccccc2)NC(=O)c2ccccc2)nc2ccccc12
0.62	CCOC(=O)C1CCCN(C(=O)Cn2cnc3sc(C)c(C)c3c2=O)C1 (configuration not stated)
0.05	Cc1[nH]c2ccccc2c1SCCNC(=O)C(C)(C)Oc1ccc(Cl)cc1
-1.06	C=CCNC(=O)c1ccc(Sc2ccc(F)cc2)c(NC(C)=O)c1
-0.43	O=C(C1CC1)N1CCc2cc(Br)cc(S(=O)(=O)NCCN3CCN(c4ccccc4)CC3)c21
-1.4	COCCNC(=O)c1cc(S(=O)(=O)N2CCC(C)CC2)ccc1F
-1.12	CC1CCN(C(=O)COc2ccc(Br)cc2)CC1
-0.28	O=C(Cc1cccs1)Nc1c2c(nn1-c1cccc(Cl)c1)CSC2
1.24	C=CCn1c(=O)[nH]c2cc(C(=O)NCc3ccco3)ccc2c1=O
0.02	CCCC(C)n1[nH]c(=O)c2c(C)cc(C)nc21 (configuration not stated)

(list continues)
Measles inh	structure
2.1	Cc1cc2nn(-c3ccccc3)nc2cc1NC(=O)c1ccc(Br)o1
0.67	Cc1ccc(CSc2ncn[nH]2)cc1
-0.35	COc1ccccc1Nc1nc(-c2c(C)nc3cc(C)ccn23)cs1
-1.46	O=C(CSc1nc2c(sc(=S)n2Cc2ccco2)c(=O)n1-c1ccc(F)cc1)NCC1CCCO1 (configuration not stated)
-0.21	Clc1ccc2noc(-c3ccccc3)c2c1
0.74	COc1ccc(N2C(=O)C(N3C(=O)c4ccccc4C3=O)C2c2cccc(OC)c2)cc1 (configuration not stated)
-1.03	CCCCCOC(=O)C1=C(C)Nc2nnnn2C1c1ccc(OC)cc1OC (configuration not stated)
1.38	COc1ccc(C2C(Oc3ccccc3C)C(=O)N2c2cc(C)ccc2C)cc1OC (configuration not stated)
-1.08	O=C(NC1CCCC1)C1CCCN(S(=O)(=O)N2CCCC2)C1 (configuration not stated)
0.75	CN(C(=O)c1ccn[nH]1)C1CC(C)(C)NC(C)(C)C1

Some values from the list.
COc1cc2c(cc1OC)CN(C(=O)C1Cc3ccccc3CN1S(=O)(=O)c1ccc(F)cc1)CC2 (configuration not stated) – Measles inh: -0.55
COc1ccc(C2C(Oc3ccccc3C)C(=O)N2c2cc(C)ccc2C)cc1OC (configuration not stated) – Measles inh: 1.38
CCC1=Nc2cc(C(=O)NCCCOC(C)C)ccc2Sc2ccc(C)cc21 – Measles inh: -0.57

Further records.
Measles inh	structure
-0.81	CC(=O)c1c(C)n(-c2ccccc2)c2ccc(OC(=O)COc3ccccc3)cc12
-1.11	CCSCCOC(=O)C1=C(C)Nc2ccccc2S1
-0.2	O=C(CCS(=O)(=O)c1cc(Br)cc2c1N(C(=O)C1CC1)CC2)Nc1cccnc1
0.02	COc1ccc(OCCn2c(-c3ccc(Br)cc3)nc3ccccc3c2=O)cc1
1.27	CCCSc1oc(-c2cccs2)nc1S(=O)(=O)c1ccc(C)cc1
0.3	COc1cccc(-c2nn(C)c3sc(C(=O)NCCC(C)C)cc23)c1
0.02	CCSc1sc(CC)cc1C1C(C(=O)Nc2ccc(Br)cn2)=C(C)NC2=C1C(=O)CC(C)(C)C2 (configuration not stated)
-0.64	CC1CCC(C(C)C)C(OP(N)(=O)OC2CC(C)CCC2C(C)C)C1 (configuration not stated)
-0.52	Cc1ccc(C)c(OCC(=O)Nc2nc3ccccc3s2)c1C
-0.64	Cc1cc(C)nc(NS(=O)(=O)c2ccc(NC(=O)c3cc([N+](=O)[O-])ccc3Cl)cc2)n1
-0.68	CC1CCCCN1S(=O)(=O)c1ccc2c(c1)CCC(=O)N2 (configuration not stated)
0.99	COc1ccc(OC)c(C2C(C(=O)OC3CCCCC3)=C(C)Nc3nc4ccccc4n32)c1 (configuration not stated)
-1.22	CCOc1ccc(-n2c(=O)c3c(C)c(C(C)=O)sc3n(Cc3cc(=O)n4cc(Cl)ccc4n3)c2=O)cc1
-0.14	CC1=CC(C)(C)N(C(=O)CN2C(=O)c3ccccc3C2=O)c2ccc(C)cc21
1.45	CCOc1cccc2cc(C(N)=O)c(=N)oc12
0.44	O=C(Nc1ccc(S(=O)(=O)Nc2nccs2)cc1)c1cc(-c2ccco2)nc2ccccc12
0.73	COc1ccc(NC2=NCCCCC2)cc1
-0.59	Fc1ccc(Nc2nc3ccccc3nc2Nc2ccc(F)cc2)cc1
-1.04	COc1ccc(-c2csc(N)n2)c(OC)c1
-0.5	c1ccc(-c2nc3cnccn3c2NC2CCCCC2)cc1
-1.23	COc1cc(C2C(C(=O)OCc3ccccc3)=C(C)NC3=C2C(=O)CCC3)cc(Br)c1O (configuration not stated)
0.68	O=C1c2cccc3cccc(c23)C(=O)N1CCN1CCN(C(=O)C23CC4CC(CC(C4)C2)C3)CC1
1.03	C=CCSc1nc(N2CCOCC2)c2c(c1C#N)CC(C)(C)OC2
-0.34	COc1ccccc1CNC(=O)C1CCN(S(=O)(=O)N2CCCCCC2)CC1
-0.34	COc1ccc(C2=CC(c3ccc(Br)cc3)n3ncnc3N2)cc1 (configuration not stated)
1.6	COc1cccc(OC)c1C(=O)Nc1c2c(nn1C(C)(C)C)CS(=O)C2 (configuration not stated)
0.01	CCOC(=O)C1CCN(S(=O)(=O)c2cc(Br)cc3c2N(C(C)=O)CC3)CC1
-0.95	CCN=c1scc(-c2ccc(OCC)cc2)n1CC
-0.16	CCOc1ccc(C(=O)N2CCc3cc(OC)c(OC)cc3C2COc2ccc(F)cc2)cc1 (configuration not stated)
2.24	O=C(O)C1CC=CCC1C(=O)Nc1ccc2c(c1)oc1ccccc12 (configuration not stated)

Exported field by field: 3 of the compounds above.
COc1ccc(CNc2nc(SCc3cc(=O)n4cc(Cl)ccc4n3)nc3ccccc23)cc1
  Measles inh: 0.55

CC1=CC(C)(C)N(C(=O)CN2C(=O)c3ccccc3C2=O)c2ccc(C)cc21
  Measles inh: -0.14

O=C(NC1CCCC1)C1CCCN(S(=O)(=O)N2CCCC2)C1 (configuration not stated)
  Measles inh: -1.08

Next entries:
Measles inh	structure
0.46	COc1ccc(-c2cc(C(F)(F)F)n3nc(C(=O)N4CCCCCC4)c(Cl)c3n2)cc1OC
-1.27	CC1CCC(C(C)C)C(OC(=O)c2ccncc2)C1 (configuration not stated)
-0.55	Cc1cccc(C(=O)n2cnc3cc(C)c(C)cc32)c1
-0.22	CCCOC(=O)C1=C(C)NC2=C(C(=O)CC(C)(C)C2)C1c1ccc(OC)cc1OC (configuration not stated)
-0.31	CC(=O)c1c(C)oc2ccc(N(C(=O)c3ccccc3)S(=O)(=O)c3c(C)cc(C)cc3C)cc12
0.5	CC(c1ccccc1)N1C(=O)c2ccccc2C1C(=O)NC1CCCCCC1 (configuration not stated)
-1.21	CC(C)OCCCNC(=O)c1cc(-c2ccncc2)nc2ccccc12
2.64	COc1ccc(C(=O)Nc2c3c(nn2-c2cccc(C)c2C)CS(=O)C3)cc1OC (configuration not stated)
-0.21	CC(C)c1ccc(NC2OC(=O)c3ccccc32)cc1 (configuration not stated)
-1.14	Cc1cc(NC(=O)c2cccc(S(=O)(=O)Nc3cc(C)on3)c2)no1
1.47	O=C(Nc1cccnc1)C1CC1c1ccccc1 (configuration not stated)
0.09	Cc1ccc(S(=O)(=O)CCC(=O)Nc2ccc(C)c(Cl)c2)cc1
-0.24	O=C(Nc1ccc(Cl)cc1)C1C2C=CC3(O2)C1C(=O)N(CC1CCCO1)C3C(=O)NC1CCCCC1 (configuration not stated)
0.47	CCOC(=O)c1ccc(NC(=O)CSc2ncnc3sc(C)c(C)c23)cc1
1.38	COc1ccc(Nc2ncnc3c2c(-c2ccccc2)cn3-c2ccc(Br)cc2)cc1OC
0.28	CC(C)c1ccc(OCc2nc(-c3ccccn3)no2)cc1
-0.32	CCN(CC)S(=O)(=O)c1ccc(Cl)c(C(=O)Nc2ccc(Br)cc2)c1
0.12	COC(=O)CN(C(=O)c1cc2ccccc2oc1=O)c1ccc(Br)cc1
-0.4	COc1ccccc1Nc1nc(-c2ccc(OC)c(OC)c2)cs1
0.12	Cc1ccccc1N1OC2C(=O)N(c3ccc(Cl)cc3)C(=O)C2C1c1ccc(N(C)C)cc1 (configuration not stated)
1.1	CCc1nc2ccc(C(=O)NC3CC3)cc2nc1CC
0.29	Cn1nc(C(F)(F)F)cc1C(=O)Nc1ccc(S(=O)(=O)N2CCCC2)cc1
2.63	Cc1ccc(-n2cc(-c3ccc4c(c3)OCO4)[nH]c2=O)cc1Cl
-0.29	CCC1Oc2ccc(C)cc2N(CC(=O)NCc2ccc(F)cc2)C1=O (configuration not stated)
0.85	CCCCSc1nnc2c(n1)OC(c1ccsc1)Nc1ccc(Br)cc1-2 (configuration not stated)
0.18	N=C(c1ccc(C(=N)N2CCCC2)cc1)N1CCCC1
0.16	CC(C)NCC(=O)Nc1c2c(nc3c1CCC3)CCCC2
1.68	O=C(CCCC1=NS(=O)(=O)c2ccccc2N1)NC1CCCCC1
0.48	CC(C)(CC(=O)N1CCCC1)CC1=NS(=O)(=O)c2ccccc2N1
0.29	CCN(CC)S(=O)(=O)c1ccc(C(=O)Nc2c3c(nn2-c2cccc(C)c2C)CS(=O)(=O)C3)cc1
-1.35	O=C(NCc1ccncc1)C(=O)Nc1ccc(Br)cc1
1.19	COC(=O)Cn1c(=O)n(-c2ccccc2)c(=O)n1CC(=O)OC
-0.38	Cc1c(C(=O)OCCOC(C)C)[nH]c2c1C(=O)CC(c1ccccc1)C2 (configuration not stated)
-0.51	CCCNc1ncnc2c1cnn2-c1ccc(OC)cc1

Bioassay records: PubChem, Emory University Molecular Libraries Screening Center
